Compound activity (PubChem BioAssay)
Hsc70 = small molecules displacing fluorescent ligand from Hsc70 – biochemical, fluorescence polarization, primary screen (AID 568); Hsc70 fluorescence polarization, probe displacement; higher % means a stronger effect; strong numbers were not always called active; displacement, % at 20 µM; hits with a dose series show IC50 in µM; 83,000 tested, under 10 active;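 active means displacement above 50% without optical interference and an IC50 on retest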;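 further: ATPase domain with a fluorescein-tagged ATP probe; 0% = vehicle and 100% = excess ADP; read after one hour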
WNV protease inh = WNV NS2B-NS3 proteinase inhibition; WNV NS2B-NS3 protease, fluorogenic substrate Ex360/Em465; stronger effect = lower value; z-score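 (tested at a level between 10 and 100 µM)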; actives 0.18% (n = 65,000); AID 577;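 active means z-score at -3 or under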;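 further: score is relative to mean and spread of the compound wells of a plate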
Target sequence (P06935 1371-1501 limits assumed): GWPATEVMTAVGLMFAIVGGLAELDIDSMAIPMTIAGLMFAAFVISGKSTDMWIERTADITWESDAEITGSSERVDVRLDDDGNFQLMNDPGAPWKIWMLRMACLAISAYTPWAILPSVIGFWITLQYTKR
Target sequence (P06935 1502-1679 limits assumed): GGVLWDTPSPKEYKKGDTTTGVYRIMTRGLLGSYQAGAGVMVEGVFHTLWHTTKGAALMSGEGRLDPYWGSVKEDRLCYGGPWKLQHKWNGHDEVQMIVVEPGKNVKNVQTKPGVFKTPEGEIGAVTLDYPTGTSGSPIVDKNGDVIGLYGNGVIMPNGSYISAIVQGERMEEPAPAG
MT1-MMP reporter = inhibitors of MT1-MMP promoter transcription, cell-based, luciferase reporter, luminescence (AID 618) | MT1-MMP promoter luciferase reporter cells, luminescence | calls from a first round at 10 µM; hits with a dose series show EC50 in µM | actives 0.62% (n = 87,000);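 active means over half of the reporter light lost at 10 µM or EC50 under 50 µM; inactive means the rest and hits that failed the dose series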;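 further: actives suppress MT1-MMP promoter-driven transcription so potencies describe inhibitors; HT1080 fibrosarcoma cells; overnight exposure; toxic or luciferase-blocking compounds were not removed from the actives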
Starred values were filed as active, the others as inactive; i = inactive; . = not tested or not shown. These rows are one share of the data; rates above refer to the full screens.

SMILES	Hsc70	WNV protease inh	MT1-MMP reporter
CCOc1ccc(NC(=O)CSc2nnc(-c3ccco3)n2C)cc1	1.0%	-1.1	i
COc1ccc(-n2c(C)nc3cc(C(=O)NCc4ccco4)ccc32)cc1	5.2%	-0.86	i
CCN(C1CCCCC1)S(=O)(=O)c1cn(C)c(=O)n(C)c1=O	1.4%	-1.9	i
COc1ccc(CN2CN(c3ccc(Cl)cc3)C(=O)N(n3cnnc3)C2)cc1	2.5%	.	i
CCc1cc2c(SCC(=O)C(C#N)=C3N(C)c4ccccc4N3C)ncnc2s1	-6.3%	-0.49	i
Cc1cc(-c2[nH]nc3c2C(c2ccc(Cl)cc2)C(C#N)=C(N)O3)c(C)s1 (stereo not given)	4.2%	.	i
CN(C)S(=O)(=O)c1cccc(C(=O)N(Cc2ccc(F)cc2)Cc2ccco2)c1	-6.6%	0.93	i
NC(=O)COC(=O)c1ccc(Oc2ccccc2)cc1	9.5%	0.98	i
CCOC(=O)c1cc(CC)sc1NC(=O)C(c1ccccc1)c1ccccc1	2.7%	.	i
CC1CC(C)(C)NCc2ccccc21 (stereo not given)	-0.5%	0.96	i
NS(=O)(=O)c1ccc(CCNC(=O)CCCC2=NS(=O)(=O)c3ccccc3N2)cc1	-1.3%	0.47	i
COCCNC(=O)Cn1c(=O)n(Cc2ccc(C(=O)NCc3ccco3)cc2)c(=O)c2ccccc21	4.1%	-1.2	i
CCN(CC)c1nc(OC)nc(-n2nnc(C(C)=O)c2C)n1	-4.7%	.	i
CC(=O)N(CC1CCCO1)c1nnc(-c2cnccn2)s1 (stereo not given)	-1.6%	0.59	i
Nc1c(C(=O)NCC2CCCO2)c2nc3ccccc3nc2n1/N=C/c1ccncc1 (stereo not given)	-2.0%	-0.12	i
Cc1ccc(C)c(/C(O)=C2\C(=O)C(=O)N(Cc3cccnc3)C2c2cccnc2)c1 (stereo not given)	0.9%	-0.0027	i
CC(NCC(O)COCc1cccs1)C1CC2CCC1C2 (stereo not given)	-1.3%	.	i
CS(=O)(=O)c1nc(-c2ccccc2)cc(-c2ccccc2)c1C#N	2.7%	.	i
Cc1cc(NC(=O)c2ccc3c(c2)C(=O)N(CCC(C)C)C3=O)no1	2.9%	0.16	i
CCn1c(=O)c(C(=O)NCc2ccccn2)c(O)c2ccccc21	2.2%	-1.1	i
CC1=C(OC(=O)c2ccccc2)C(C)(C)C(c2ccccc2)OC1=O (stereo not given)	-2.2%	.	i
CCOc1ccc(CC(=O)Nc2c(C(N)=O)oc3ccccc23)cc1OCC	-2.6%	1	i
Cc1ccc(OC(=O)c2cccc(C(=O)Oc3ccc(C)cn3)n2)nc1	-3.7%	0.57	i
Cc1nnc(C)n1/N=C/c1ccccn1	-2.0%	1.7	i
CCOCCn1cnc2sc(C(=O)Nc3nc(C)c(C(=O)OCC)s3)c(C)c2c1=O	-4.6%	-0.15	i

13 structures out of the list, ordered by molecular weight, low to high:
SMILES	Hsc70	WNV protease inh	MT1-MMP reporter
CC1CC(C)(C)NCc2ccccc21 (stereo not given)	-0.5%	0.96	i
Cc1nnc(C)n1/N=C/c1ccccn1	-2.0%	1.7	i
CCN(CC)c1nc(OC)nc(-n2nnc(C(C)=O)c2C)n1	-4.7%	.	i
CC(NCC(O)COCc1cccs1)C1CC2CCC1C2 (stereo not given)	-1.3%	.	i
CCn1c(=O)c(C(=O)NCc2ccccn2)c(O)c2ccccc21	2.2%	-1.1	i
CC1=C(OC(=O)c2ccccc2)C(C)(C)C(c2ccccc2)OC1=O (stereo not given)	-2.2%	.	i
Cc1ccc(OC(=O)c2cccc(C(=O)Oc3ccc(C)cn3)n2)nc1	-3.7%	0.57	i
Cc1cc(-c2[nH]nc3c2C(c2ccc(Cl)cc2)C(C#N)=C(N)O3)c(C)s1 (stereo not given)	4.2%	.	i
Cc1ccc(C)c(/C(O)=C2\C(=O)C(=O)N(Cc3cccnc3)C2c2cccnc2)c1 (stereo not given)	0.9%	-0.0027	i
CN(C)S(=O)(=O)c1cccc(C(=O)N(Cc2ccc(F)cc2)Cc2ccco2)c1	-6.6%	0.93	i
CCc1cc2c(SCC(=O)C(C#N)=C3N(C)c4ccccc4N3C)ncnc2s1	-6.3%	-0.49	i
NS(=O)(=O)c1ccc(CCNC(=O)CCCC2=NS(=O)(=O)c3ccccc3N2)cc1	-1.3%	0.47	i
COCCNC(=O)Cn1c(=O)n(Cc2ccc(C(=O)NCc3ccco3)cc2)c(=O)c2ccccc21	4.1%	-1.2	i

Next part:
SMILES	Hsc70	WNV protease inh	MT1-MMP reporter
COc1ccc2[nH]c(=O)c(CN(Cc3cccs3)S(=O)(=O)c3c(C)ccc4nsnc34)cc2c1	3.1%	.	i
O=S(=O)(c1cccs1)N1CN(CC2CCCO2)c2nc3ccccc3nc21 (stereo not given)	4.4%	-1.5	i
COc1ccc(-n2c(COc3ccccc3)nnc2SCc2ccc(C#N)cc2)cc1	0.7%	-0.54	i
O=C(Nc1cccc(C(F)(F)F)c1)c1cccnc1N1CCCC1	4.4%	0.39	i
COc1cc(C(=O)N2CCC(n3c(C)nc4cc(F)ccc43)CC2)cc(OC)c1OC	-1.3%	.	i
CC(C)COc1ccc(-c2nn(-c3ccccc3)cc2C(=O)Nc2nccs2)cc1	2.6%	.	i
Cc1ccc(C=Nc2ccc(N(C)C)cc2)o1	3.2%	-0.22	i
Cc1oc(-c2ccccc2F)nc1CS(=O)(=O)CC(=O)N1CCOCC1	3.0%	0.66	i
Cc1ccccc1N1C(=O)N(c2cccc(C(F)(F)F)c2)C2CS(=O)(=O)CC21 (stereo not given)	-7.7%	0.63	i
Nc1[nH]c(=S)[nH]c(=O)c1-c1ccccc1	10%	-0.66	i
COc1cccc(-c2nnc(NC(=O)c3ccc(S(=O)(=O)N4CCOCC4)cc3)o2)c1	5.0%	-1.4	i
O=C(CCSc1ccccc1)NCCN1CCOCC1	-6.5%	-0.76	i
CCOc1ccc(N(CC(=O)NC(C)(C)C)S(=O)(=O)c2c(C)noc2C)cc1	3.7%	-0.4	i
Clc1ccccc1-c1nc2ccccc2c2nncn12	-4.3%	.	i
COc1ccc(C(=O)C(OC(=O)CNC(=O)c2ccco2)c2ccccc2)cc1 (stereo not given)	12%	-1.1	i
N#Cc1c(NC(=O)CSc2nnc(-c3ccco3)n2-c2ccccc2)sc2c1CCC2	-7.9%	.	i
Cc1nnc2c(Oc3ccccc3)nc3ccccc3n12	-0.3%	.	i
Cc1nc2ccccc2c(=O)[nH]1	-3.8%	.	i
O=C(CCn1c(=O)c2ccccc2n(CC(=O)NC2CCCC2)c1=O)NCc1ccco1	2.6%	.	i
NC(=O)c1nsc(C(=O)N(CC(=O)NCc2ccc3c(c2)OCO3)C2CCCCC2)c1N	-3.0%	-0.6	i
CCOC(=O)C(NC(C)=O)(Nc1ccc(S(=O)(=O)Nc2cc(C)nc(C)n2)cc1)C(F)(F)F (stereo not given)	-12%	-0.83	i
Cc1cc(C)n2c3c(c(C#N)c2n1)CC(C)(C)OC3	-3.1%	-0.26	i
COC(=O)CSc1nnc(-c2ccco2)n1-c1ccc(C)cc1	2.8%	0.36	i
Nc1ncnc2c1ncn2C1CCC(CO)C(O)C1 (stereo not given)	5.9%	-0.92	i
COc1cccc(-c2nnc(NC(=O)C3CCCCC3)o2)c1	3.2%	1.8	i

(listing goes on)
SMILES	Hsc70	WNV protease inh	MT1-MMP reporter
COc1ccc(NS(=O)(=O)c2ccc(OC)c(OC)c2)cc1OC	-2.7%	-0.43	i
O=C(CSc1nc(-c2ccco2)cc(C(F)(F)F)n1)Nc1ccc2c(c1)OCO2	2.2%	-0.13	i
O=C(NCc1ccc(Cl)cc1)c1cc2c(nc3sccn32)s1	-1.5%	-1.5	i
O=C(CN1CCN(c2ccccc2)CC1)Nc1nccs1	1.2%	0.53	i
Oc1ccc(CNc2ccc(F)cc2)c2cccnc12	-3.1%	2.2	i
Clc1ccccc1Nc1ncnc2c1nnn2Cc1ccccc1	-3.2%	-0.47	i
COc1ccc(Cl)cc1NC(=O)C1CC(=O)N(c2ccc(F)cc2)C1 (stereo not given)	0.1%	0.66	i
O=C(Nc1ccon1)C(Sc1ccccc1)c1ccccc1 (stereo not given)	2.0%	-1.1	i
ONC=Nc1cccc2nonc12	3.8%	-0.43	i
O=C(NCC(=O)N(Cc1ccco1)C(C(=O)NC1CCCCC1)c1cccnc1)c1cccs1 (stereo not given)	-4.3%	.	i
CCCOc1ccc(Cc2nc(N)nc(N)n2)cc1	4.6%	1.7	i
CCCN(N=Nc1cccc([N+](=O)[O-])c1)c1cccc([N+](=O)[O-])c1	-3.2%	.	i
COc1ccc(OCCCON2C(=O)c3ccccc3C2=O)cc1	3.0%	-0.68	i
COc1ccc(CNC(=O)Nc2cccs2)cc1OC	-0.3%	1	i
COCn1c(-c2ccc(OC)cc2)nc2ccccc21	0.1%	.	i
CCC(C)(C)NC(=O)C(c1ccncc1)N(Cc1ccc(C)cc1)C(=O)c1csnn1 (stereo not given)	1.7%	.	i
COCCn1c(CN2CCN(c3ccccc3)CC2)nc2c1c(=O)n(C)c(=O)n2C	-7.4%	.	i
O=C(Cn1c(=O)n(CC(=O)NCc2ccccc2)c2ccccc21)NCc1ccccc1	-0.6%	.	i
COc1ccc(N2C(=O)CC(Cc3ccccc3)C2=O)cc1 (stereo not given)	-1.0%	-0.65	i
CC1OC23CCCCC2C(C#N)(C(=N)O3)C1(C#N)C#N (stereo not given)	0.1%	.	i
CCCCOc1ccc(NC(=O)CN2CCN(C(=O)OCC)CC2)cc1	5.6%	0.0068	i
Cc1cc(C)cc(-c2nnc(SCC(=O)NCc3cccs3)o2)c1	4.2%	0.16	i
O=C(NCc1ccccn1)c1ccc(Cl)cc1Cl	2.6%	1.1	i
CN1C(=O)c2c(sc3c2CCCC3)NC1c1ccccc1O (stereo not given)	2.8%	0.3	i
Cc1cc(NC(=O)c2cnn3cccnc23)n(-c2ccccc2)n1	-0.2%	0.09	i

Next part
SMILES	Hsc70	WNV protease inh	MT1-MMP reporter
Cn1c(SCC(=O)OCc2ccccc2)nnc1-c1ccco1	-1.5%	.	i
CC(=O)N1CCN(C(=O)CCc2c[nH]c3ccccc23)CC1	-5.5%	1.4	i
CC(C)(C)OC(=O)N1CCOCCOCCN(C(=O)OC(C)(C)C)CCOCC1	3.0%	-1.5	i
CCn1c(COc2ccccc2)nnc1SCC(=O)Nc1cc(OC)ccc1OC	-2.7%	0.24	i
COc1ccc(OCc2nc(N)nc(Nc3ccc(C)cc3)n2)cc1	2.5%	.	i
CCOC(=O)c1[nH]c(=O)[nH]c1COC(=O)c1cc2ccccc2o1	-2.6%	-0.7	i
Cc1c(C(=O)OCC(=O)c2ccc3c(c2)OCCO3)oc2ccccc12	-3.1%	-0.62	i
CCOC(=O)N1CCC(NC(=O)Cn2c3c(c(-c4ccccc4Cl)cc2=O)CCC3)CC1	-1.8%	-0.21	i
CCOC(=O)c1c(C)[nH]c(C(=O)COC(=O)c2cnc(C)cn2)c1C	-0.7%	-1.5	i
Cc1csc(NC(=O)CSc2nnnn2C)n1	-3.4%	.	i
CCCCN(C(=O)NC(=O)C1=C(N2CCOCC2)/C(=C/c2ccccc2)CC1)S(C)(=O)=O	-6.2%	0.9	i
CCOc1cc(C(=O)OCC(=O)Nc2cc(C)on2)cc(OCC)c1OCC	2.5%	.	i
COC(=O)c1ccccc1NC(=O)c1cnn2c(C(F)F)cc(C3CC3)nc12	-1.3%	-0.49	i
CCOC(=O)c1nnn(-c2nonc2-n2cccc2)c1CN1CCC(C)CC1	-11%	-1	i
CC1(C)CC(=O)c2c(O)cc(O)cc2O1	-1.1%	0.39	i
CN1CCN(c2cc(=O)n(-c3ccc(Cl)cc3)c(=O)[nH]2)CC1	3.5%	-0.16	i
O=C(NC1CCCc2ccccc21)C1CCN(S(=O)(=O)N2CCCCCC2)CC1 (stereo not given)	-9.1%	-0.67	i
Fc1ccc(-c2nn3c(C4COc5ccccc5O4)nnc3s2)cc1 (stereo not given)	-7.2%	-0.57	i
COc1ccc(NC(=O)CSc2nnc(CN3CCOCC3)n2-c2ccccc2)cc1Cl	1.1%	0.01	i
Cc1ccc(-c2nnn(CC(=O)N(c3cccc(F)c3)C(C(=O)NC3CCCC3)c3ccco3)n2)o1 (stereo not given)	-6.9%	-0.0027	i
CCC1CCCCN1c1nc(-c2cccc(OC)c2O)nc2ccccc12 (stereo not given)	-4.1%	-0.44	i
CCOc1ccc(CCNC(=O)C2CCCN(c3nn4c(=O)cc(C)nc4s3)C2)cc1OCC (stereo not given)	-2.0%	0.63	i
COc1ccc(Nc2oc(-c3cccs3)nc2C#N)cc1	-7.7%	-0.5	i
COc1ccc2cc(C(c3nnnn3Cc3ccc(F)cc3)N3CCCCCC3)c(=O)[nH]c2c1 (stereo not given)	-11%	-1.1	i
Cc1cc(OCC(=O)Nc2ccc(S(=O)(=O)N3CCN(C)CC3)cc2)cc(C)c1Cl	4.1%	-0.68	i

Next part
SMILES	Hsc70	WNV protease inh	MT1-MMP reporter
Cc1ccc2c(c1)N(CC(=O)c1cccc(Cl)c1)C(=O)C(C)O2 (stereo not given)	-3.9%	-0.21	i
CCc1nc(SCC(=O)Nc2cc(C)on2)c2c(C)c(C)sc2n1	-1.6%	0.73	i
Cc1ccccc1-n1nnnc1-c1ccccc1	-6.4%	-1.3	i
COc1ccc(-c2c(-c3ccc(O)cc3O)n[nH]c2C)cc1OC	-0.9%	.	i
CCc1c(C)sc(NC(=O)c2cc(-c3ccco3)on2)c1C#N	-0.9%	-0.72	i
Cn1c(=O)n(CC(=O)N2CCOCC2)c2ccccc21	-1.3%	-1.5	i
CCC1(C)Cc2ccccc2-c2nc(NCCO)[nH]c(=O)c21 (stereo not given)	3.6%	.	i
